PINK1 expr mod: A Quantitative High throughput Screen to Identify Chemical Modulators of PINK1 Expression; PINK1 immunofluorescence, high-content cytometry, 24 h; Potency, µM (titrated, usually from 76.6 µM), for inactives: at the top dose activation (PINK1 increase), usual class: activators; 410,000 compounds, 0.2% hits; AID 624263, 2012; active = well fitted activation curve with a large enough effect; inconclusive = small, poorly fitted or top-dose-only effect; inactive = flat fitted curve, though single readings scatter; cell line not stated here;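 note: potency is the fitted concentration of half-maximal effect; % of control where 0% means no effect; nearly all actives have a fitted effect of over 65% in size; a mitochondrial uncoupler was the plate control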
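Stable cell line, 250 cells/well, 12 h attachment; compounds pinned at 5 concentrations, 24 h; CCCP control. Fixed with nuclear dye, primary antibodies 12 h at 10 degrees C, secondary plus cell stain; laser-scanning cytometer read.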
D2 agonist: Beta-Arrestin HTS for Positive Allosteric Modulators of the Human D2 Dopamine Receptor: Agonists | D(2) dopamine receptor (Homo sapiens), P14416 | DiscoveRx PathHunter D2 beta-arrestin, luminescence, 90 min; 100% = 57 uM dopamine signal | activation, % (concentration not given with the values) | 360,000 compounds, 0.084% hits; in the data active = activation above about 40%; inconclusive = about 15% to 40%; inactive = below about 15%; note: the text of the record calls up to 30% inactive
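DiscoveRx PathHunter D2 beta-arrestin cells (2,100/well) attached overnight, then compound-stimulated 90 min at 37 C in HBSS/10 mM HEPES/0.1% Tween-20 buffer; beta-galactosidase complementation read by luminescence after 1 h at ambient temperature. Dopamine 57 uM final (EC100) as control.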
Sfp inh: qHTS Assay for Inhibitors of Bacillus subtilis Sfp phosphopantetheinyl transferase (PPTase); Biochemical Sfp PPTase activity, qHTS; AID 1490, 2009; 4'-phosphopantetheinyl transferase ffp (Bacillus subtilis), Q9F4F7; Potency, µM, inactives show max response, negative = inhibition, most hits filed as inhibitors; 310,000 compounds, 3.5% hits; active = well fitted inhibition curve with a large enough effect; inconclusive = small, poorly fitted or top-dose-only effect, or another doubt; inactive = no such curve, though single readings can be large or run the other way;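 note: the enzyme is Sfp with the accession as filed and its product quenches rhodamine fluorescence; potency is the fitted concentration of half-maximal effect; 0% = enzyme reaction without inhibitor and -100% = no enzyme wells; top concentration of the series not given in the record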
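After 15 min at room temperature with compound, 15 nM Sfp received 5 uM rhodamine-CoA plus 12.5 uM BHQ-2-ybbR (50 mM Hepes pH 7.6, 10 mM MgCl2). Rate came from the fluorescence difference over 30 min, ex 525/em 598 nm.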
TRPV1 potentiator: HTS Assay for Compounds that Act as Potentiators of the Vanilloid Receptor 1; AID 540277, 2011; potentiation, % at 8.33 µM; 320,000 compounds, 0.02% hits; Transient receptor potential cation channel subfamily V member 1 (Homo sapiens), Q8NER1; TRPV1-expressing cells, Fluo-8 calcium influx, capsaicin EC20 potentiation; host cell line not named in the record; control for the full effect not named in the record; active means potentiation above 80%; inconclusive means 30% to 80%; inactive means below 30%; note: 0% is about no effect
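TRPV1-expressing cells were cultured overnight at 35.5C and loaded with Fluo-8 calcium dye for 40 to 90 min at room temperature. After a 10 s baseline, compound was added and calcium influx was read kinetically for 3 min (ex 480/em 520 nm).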
CtBP-E1A inh: qHTS Assay for Inhibitors of the CtBP/E1A Interaction | CtBP / adenovirus E1A interaction (AlphaScreen) | AlphaScreen GST-E1A/His-CtBP binding, 1536-well; stronger effect = lower value; control for the full effect not named in the record | activity change, % (concentration not given with the values) | 340,000 compounds, 0.49% hits | AID 651724, 2012; in the data active means activity change below about -65%; inconclusive means about -30% to -65%; inactive means above about -30%; note: % is set by controls: 0 for no effect and ±100 for the full control effect
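GST-E1A and His-tagged CtBP (125 nM each as 5X stock) were preincubated with pin-transferred compound for 2 h at 37 °C in the dark, then glutathione donor and nickel acceptor beads were added for 1 h before AlphaScreen reading.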
D2 PAM: Beta-Arrestin HTS for Positive Allosteric Modulators of the Human D2 Dopamine Receptor: Potentiators | D(2) dopamine receptor (Homo sapiens), P14416 | DiscoveRx D2 beta-arrestin cells, luminescence, 90 min; 100% = 57 uM dopamine signal | potentiation, % (concentration not given with the values) | 360,000 compounds, 0.23% hits | AID 624464, 2012; active = potentiation of 50% or more; inconclusive = 30% to 50%; inactive = 30% or less;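 note: tested on top of an EC20 dose of dopamine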
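D2 cells co-treated with compound plus 50 nM dopamine (EC20) for 90 min at 37 deg C to detect potentiation. Beta-arrestin recruitment was read as enzyme-fragment luminescence after 1 h at ambient temperature. Full response was set by 57 uM dopamine.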
Six1-Eya2 blk: qHTS Assay for Inhibitors of the Six1/Eya2 Interaction. 360,000 compounds, 0.56% hits. activity change, % (test concentration not listed). AlphaScreen GST-Six1/His-Eya2 binding, biochemical; stronger effect = lower value; control for the full effect not named in the record; in the data active = activity change below about -65%; inconclusive = about -30% to -65%; inactive = above about -30%; note: % is set by controls: 0 for no effect and ±100 for the full control effect
Target sequence (O00167 whole entry, looked up): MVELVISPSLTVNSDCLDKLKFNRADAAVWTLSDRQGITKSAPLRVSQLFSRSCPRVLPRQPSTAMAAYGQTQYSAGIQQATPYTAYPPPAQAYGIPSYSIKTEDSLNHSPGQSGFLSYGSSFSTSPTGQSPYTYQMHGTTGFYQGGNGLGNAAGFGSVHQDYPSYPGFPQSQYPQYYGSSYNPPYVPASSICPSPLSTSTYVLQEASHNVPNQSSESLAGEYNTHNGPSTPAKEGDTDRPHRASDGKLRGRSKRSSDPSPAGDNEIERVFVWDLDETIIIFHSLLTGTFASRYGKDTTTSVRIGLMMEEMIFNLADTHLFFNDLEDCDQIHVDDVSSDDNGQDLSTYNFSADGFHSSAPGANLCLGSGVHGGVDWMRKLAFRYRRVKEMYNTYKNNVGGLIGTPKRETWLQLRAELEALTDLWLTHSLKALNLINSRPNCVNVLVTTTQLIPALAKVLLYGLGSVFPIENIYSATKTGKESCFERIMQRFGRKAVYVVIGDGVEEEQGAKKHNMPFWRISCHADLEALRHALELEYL
Target sequence (Q15475 whole entry, looked up): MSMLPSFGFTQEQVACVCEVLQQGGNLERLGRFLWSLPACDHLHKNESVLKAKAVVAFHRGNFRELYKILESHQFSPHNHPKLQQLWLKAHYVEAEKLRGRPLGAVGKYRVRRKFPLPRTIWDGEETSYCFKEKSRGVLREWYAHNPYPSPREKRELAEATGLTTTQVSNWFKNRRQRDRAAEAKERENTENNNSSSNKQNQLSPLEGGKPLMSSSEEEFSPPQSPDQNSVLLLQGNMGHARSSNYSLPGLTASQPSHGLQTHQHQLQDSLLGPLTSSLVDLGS
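AlphaScreen with GST-Six1 and His-Eya2 (5X mix: 250 nM and 500 nM), glutathione donor and nickel acceptor beads; buffer 50 mM Tris pH 8.0, 300 mM NaCl, 1 mM TCEP; 1 h at 37 C in the dark.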
* marks the source's active call; other numbers are inactive results; ? = inconclusive; . = no result given; [ ] = another dose, or the depositor's remark.

SMILES	PINK1 expr mod	D2 agonist	Sfp inh	TRPV1 potentiator	CtBP-E1A inh	D2 PAM	Six1-Eya2 blk
O=C1CC(C(=O)N2CCOCC2)C2(CCCC2)O1 (stereo not drawn)	0.2%	-1.7	-2.6%	6.3	2.6	-3.0	5.4
COCCCNC(=O)C[C@H]1C[C@H](C(=O)N2CCCCC2)[C@@]2(CCc3ccccc3)c3[nH]c4cc(-c5ccco5)ccc4c3CCN2C1=O	2.2%	-3.6	.	.	-24.6	-10.6	-11.6
O=C(c1cccs1)N1CCN(c2nc3c(F)cc(F)cc3s2)CC1	0.6%	5.5	.	-6.4	-0.5	-5.5	-5.1
O=C(NC(CC(=O)N1CCN(c2ccc([N+](=O)[O-])cc2)CC1)c1ccccc1)c1ccccc1Cl (stereo not drawn)	0.2%	-5.7	26.5%	-13.1	.	-4.9	-2.3
CCCCN(CCCNc1ncnc2nc[nH]c12)c1ccccc1	1.1%	-0.4	-15.7%	-8.3	-23.6	-1.5	-17.9
CCN(CC)S(=O)(=O)c1ccc(S(=O)(=O)Nc2cc3c(cc2C(C)=O)OCO3)cc1	1.2%[38.3 µM]	-1.3	?	-3.6	2.4	-2.4	0.2
COc1cccc(CNCCN2CCOCC2)c1OC	-2.2%	-3.3	15.0%	1.5	2.1	-26.8	0.6
C=CCNc1nc2cc(-c3ccc(C(=O)N4CCOCC4)cc3)sc2c(=O)n1C	4.8%	-8.8	.	.	-0.7	-9.8	0.0
COC(=O)[C@H](CC(C)C)NS(=O)(=O)N[C@@H](CC(C)C)C(=O)OC	0.4%	-3.2	.	0.5	7.9	-2.0	3.1
CCn1cc(/C=N/NC(=O)c2ccc3c(c2)OCO3)cn1	-0.7%	-2.6	8.2%	0.9	-7.8	-4.7	-2.1

Brought forward from above: 2 entries; new compounds follow.
SMILES	PINK1 expr mod	D2 agonist	Sfp inh	TRPV1 potentiator	CtBP-E1A inh	D2 PAM	Six1-Eya2 blk
COC(=O)[C@H](CC(C)C)NS(=O)(=O)N[C@@H](CC(C)C)C(=O)OC	0.4%	-3.2	.	0.5	7.9	-2.0	3.1
CCn1cc(/C=N/NC(=O)c2ccc3c(c2)OCO3)cn1	-0.7%	-2.6	8.2%	0.9	-7.8	-4.7	-2.1
CC1CCN(C(=O)COC(=O)c2ccc3ccccc3n2)CC1	-0.5%	-2.8	.	.	-4.0	-3.6	4.1
CC1CC(C)CN(C(=O)CNS(=O)(=O)c2cccs2)C1 (stereo not drawn)	0.8%	1.8	23.7%	15.4	-3.2	-2.7	12.0
Cn1c(SCC(=O)N/N=C/C=C\c2ccccc2[N+](=O)[O-])nc2ccccc21	13.0%	1.2	5.7%	-1.1	-13.1	-2.2	-12.8
O=CN(Cc1ccco1)C1(C(=O)NC2CCCCC2)CCCCC1	-2.4%	2.2	13.1%	-13.1	-8.2	2.9	8.0
O=c1[nH]c(-[n+]2ccc3ccccc3c2)c(/C=N/N=C(\[O-])c2ccccc2)s1	-0.5%	-0.5	-3.8%	-1.6	-5.7	10.4	-11.9
COc1ccc(/C=N/OCC(=O)Nn2c(C)nc3ccccc3c2=O)cc1	1.3%	-0.7	-1.5%	-2.5	5.0	-6.9	-2.9
CC(=O)NC1(C(F)(F)F)NC(=O)N(CC(C)C)C1=O (stereo not drawn)	0.6%	-0.1	9.4%	6.4	2.0	0.6	0.7
COc1ccc(NC(=S)N2CCN(S(=O)(=O)c3ccc(OC)cc3)CC2)cc1	-0.3%	-5.2	2.4%	5.1	-25.9	-10.8	-21.1
O=C(/C=C/c1c(Cl)cccc1Cl)n1cccn1	0.8%	-4.1	?	-6.8	1.6	-13.5	-1.9
CC1CCN(c2cc(N3CCC(C)CC3)c([N+](=O)[O-])cc2/C=C(\C#N)c2nn(-c3ccccc3)c(N)c2C#N)CC1	-0.1%	-2.5	18.1%	.	-11.4	-4.0	-10.5
CC(C)c1ccc(Oc2cccc3c2S(=O)(=O)N(C2CCCC2)CC(COCc2ccccc2)O3)cc1 (stereo not drawn)	1.4%	-0.9	.	.	-3.9	-6.4	-4.3
Nc1c(C(=O)N/N=C/c2cccnc2)oc2nc(-c3ccco3)cc(-c3ccco3)c12	5.3%	5.4	?	8.6	-21.5	16.6	-27.5
Cc1ccc(-c2csc3nc[nH]c(=O)c23)c(C)c1	1.0%	-1.3	4.3%	4.0	9.1	-0.6	1.4
CNc1ccc(S(=O)(=O)NC)cc1[N+](=O)[O-]	-0.9%	-9.2	20.1%	10.9	.	-14.7	8.6
CC(C)OC(=O)c1c(NC(=O)CCn2nnc3ccccc32)sc2c1CCCC2	-1.4%	-0.2	?	?	1.6	3.5	-3.3
CCn1c2ccccc2c2cc(NC(=O)c3ccc(C)c([N+](=O)[O-])c3)ccc21	2.7%	1.6	20.1%	15.3	-1.8	5.5	-6.9
COc1cnc(-c2ccccn2)nc1Oc1ccc(Cl)c2ccccc12	-1.2%	-4.8	-5.9%	.	-12.0	-15.9	-7.0
CC(C)Cn1c(=O)c2c(c3ccccc31)OC(C)C(=O)N2 (stereo not drawn)	-2.0%	-5.4	13.3%	-2.1	-8.7	0.2	8.4
COC(=O)c1ccc(CN2CCN(CCC(C)C)C(CCO)C2)cc1 (stereo not drawn)	1.4%	1.4	9.1%	4.7	0.2	-5.7	6.1
CC1=CC(C)(C)[N+](C)(C)c2ccccc21	-0.2%	-5.9	2.9%	1.2	-0.8	-5.0	9.4
C=C1CC2(CC(c3ccccc3)OC(c3ccccc3)C2)OC1=O (stereo not drawn)	-1.7%	-2.8	.	.	1.9	-14.6	2.4
COc1ccc(C(=O)NCC(=O)OCC(=O)NC(=O)NC2CCCCC2)cc1OC	1.4%	-3.5	0.2%	-4.4	-1.9	3.5	-1.1
O=C(CS(=O)(=O)c1ccc(Br)cc1)N1CCOCC1	-0.1%	-4.4	13.7%	-10.8	4.4	-14.1	1.7
CCN(CC)c1ccc(C=C2C(=O)OC3(CCCCC3)OC2=O)cc1	-1.4%	-0.5	-25.3%	-6.7	7.2	-4.1	2.0
O=C(CNC(=O)c1cccc(-n2cnnn2)c1)Nc1ccc(F)c(F)c1	1.2%	-2.2	.	1.7	-7.4	-2.0	-18.5
CC1CCN(S(=O)(=O)c2cc(C(=O)NC3(C)CCS(=O)(=O)C3)ccc2Br)CC1 (stereo not drawn)	0.2%	12.0	.	-4.0	4.3	-3.7	6.1
Cc1nc2ccccc2c2oc(C(=O)N3CCN(C(=O)c4ccco4)CC3)cc12	0.7%	1.0	70.8µM*	-8.5	-6.1	-1.6	-12.1
O=c1[nH]c2ccc(NC(=S)NC3CCCCC3)cc2[nH]1	1.1%	1.9	-18.5%	9.3	-6.6	-0.7	-6.4
C#CCOCCOCCOCCNc1nc(N2CCN(C(=O)CCCCCCCCCCNC(=O)[C@@H](CCSC)n3cc(CCO)nn3)CC2)nc(N2CCN(C(=O)CCCCCCCCCCNC(=O)[C@H](CCC(=O)O)n3cc(CCCCCN)nn3)CC2)n1	-0.1%	-2.6	.	-6.0	.	2.5	-10.7
COc1nccc(NCc2ccccc2)c1C#N	-0.4%	3.6	.	.	.	-3.3	3.1
O=C(O)c1cc(-c2ccccc2)n[nH]1	2.5%	.	-0.8%	25.9	.	.	.
COCCN1C(=O)c2ccc(C(=O)NCc3cccnc3)cc2C1=O	3.3%[38.3 µM]	-0.7	15.0%	-11.1	-16.3	5.4	-3.1
COC(=O)c1ccn(-c2nc(-c3ccco3)cc(C(F)(F)F)n2)n1	-3.3%	-3.2	4.5%	-14.0	-11.0	-6.8	-10.0
O=C(C1CCN(CCCc2ccccc2)CC1)N1CCCCC1	3.2%	?	5.9%	-12.7	-2.7	8.0	-3.2
COc1ncnc2c1oc1ccccc12	-0.1%	-3.5	6.2%	10.5	.	-6.6	-2.8
COc1ccc(OCCCn2cccc2/C=C2/C(=N)N3OC(C)=CC3=NC2=O)cc1	-1.3%	-5.4	1.2%	-11.5	-14.8	-1.0	-0.4
CCOC(=O)c1ccc(NCCc2ccc(OC)c(OC)c2)c(N)c1	2.8%	8.5	13.3%	10.2	-2.4	24.0	-20.1
Cc1cc(N2CCN(C(=O)Nc3ccc(F)cc3F)CC2)c2ccccc2n1	2.4%	-0.3	4.3%	-8.5	-13.1	-5.7	-17.9
CCOc1ccc(-c2cc(C(=O)N3CCCC3)c3ccccc3n2)cc1	14.2%	-1.7	-0.2%	-5.8	0.5	-7.0	-0.6
C=CC[C@@H](CC(=O)N[C@@H](CO)Cc1ccccc1)C(=O)NCCOC(=O)[C@@H](CC=C)Cc1ccc(F)cc1	-0.8%	1.4	.	.	7.2	.	6.0
CCOC(=O)CSc1ccc2nnc(CCNS(=O)(=O)c3ccc(C)cc3)n2n1	-0.1%	2.1	18.5%	-1.7	-7.0	-7.4	5.4
Cc1ccc(C)c(S(=O)(=O)NCc2ccc(C(=O)NCc3ccccn3)cc2)c1	-0.7%	-1.7	11.9%	-3.2	10.3	-1.4	-4.8
COc1cc(C2CC(=O)OC3=C2C(=O)CC(C)(C)C3)cc(OC)c1OC (stereo not drawn)	0.0%	-3.1	22.1%	4.5	14.8	-4.5	-8.5
COCCCNC(=O)/C(C#N)=C/c1c(N2CCCCCC2)nc2ccccn2c1=O	0.7%	-4.2	-2.4%	-34.7	5.9	0.6	-4.8
COc1ccc(C2c3c(oc4ccccc4c3=O)C(=O)N2CCN2CCOCC2)cc1OC (stereo not drawn)	-0.5%	-1.7	.	.	8.9	-7.1	-5.5
S=C(NCCN1CCOCC1)C(=S)NCCN1CCOCC1	-2.2%	3.6	.	.	21.7	-4.0	9.9
CCCCn1c(CNC(=O)C23CC4CC(CC(C4)C2)C3)nnc1SC(C)CC (stereo not drawn)	17.7%	-2.3	-5.5%	-7.9	3.0	-13.0	8.3

Screening data: PubChem, National Center for Advancing Translational Sciences (NCATS)
